MbtI inh – MbtI salicylate synthase inhibitors, primary screen, biochemical, fluorescence intensity. P9WFX0. purified MbtI enzyme, fluorescence intensity read-out. inhibition, %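 (about 17 µg/mL by stock and volumes)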. 0.89% of 100,000 active. AID 493033, 2011;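 active means above 50% in both replicates, above 80% if mildly self-fluorescent; inactive means the rest, strongly fluorescent compounds included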;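 further: 0% = mean of negative and 100% = mean of positive controls; one replicate is shown; some compounds called inactive have numbers as strong as hits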
Mtb MenB inh – M. tuberculosis MenB inhibitors, primary screen, biochemical, absorbance. 1,4-dihydroxy-2-naphthoyl-CoA synthase (Mycobacterium tuberculosis (strain ATCC 25618 / …. MenB enzyme assay, absorbance read-out; some hits fall short of the stated cut. inhibition, %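 (about 12 µg/mL by stock and volumes)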. 0.43% of 100,000 active;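 active means mean of two replicates above 30%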;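 further: 0% = no compound and 100% = wells with inactive enzyme; the first replicate is given; strong numbers were not always called active; inactives centre near -10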
Target sequence (P9WNP5 whole entry, looked up): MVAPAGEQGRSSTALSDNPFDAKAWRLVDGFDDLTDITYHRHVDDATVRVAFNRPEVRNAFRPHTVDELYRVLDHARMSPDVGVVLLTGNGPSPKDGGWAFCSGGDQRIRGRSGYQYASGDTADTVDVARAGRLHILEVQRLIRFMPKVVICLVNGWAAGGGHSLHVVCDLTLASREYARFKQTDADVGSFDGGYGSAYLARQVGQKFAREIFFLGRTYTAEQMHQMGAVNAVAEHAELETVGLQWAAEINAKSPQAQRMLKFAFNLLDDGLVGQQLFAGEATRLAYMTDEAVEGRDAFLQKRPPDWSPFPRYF
Polio RdRp inh – poliovirus RdRp elongation inhibitors, primary screen, biochemical, fluorescence polarization, total intensity. 0.66% of 150,000 active. % elongation, % (compound at 16.7 µg/mL). poliovirus polymerase elongation; active compounds read low; in the data active means % elongation below about 90%; further: some results filed as inactive read as strong as hits
Target sequence (P03300 1749-2209 limits assumed): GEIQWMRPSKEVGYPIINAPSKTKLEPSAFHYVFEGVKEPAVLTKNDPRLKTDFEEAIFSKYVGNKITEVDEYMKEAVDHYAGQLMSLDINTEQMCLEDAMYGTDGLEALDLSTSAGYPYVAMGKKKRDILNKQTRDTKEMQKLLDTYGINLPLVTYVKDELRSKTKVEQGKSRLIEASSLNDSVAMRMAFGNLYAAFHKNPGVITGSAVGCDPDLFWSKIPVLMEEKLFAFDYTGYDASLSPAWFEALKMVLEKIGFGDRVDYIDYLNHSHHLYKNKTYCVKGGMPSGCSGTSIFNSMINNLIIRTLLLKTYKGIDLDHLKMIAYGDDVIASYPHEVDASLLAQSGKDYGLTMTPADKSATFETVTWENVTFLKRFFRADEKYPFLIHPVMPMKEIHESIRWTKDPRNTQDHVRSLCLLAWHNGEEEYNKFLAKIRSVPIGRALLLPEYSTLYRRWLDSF
Polio RdRp inh intensity – second read-out of Polio RdRp inh, no call of its own (marks repeat the call); % elongation; measured here: total intensity read-out; formula for this scale not given here;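 total fluorescence in place of polarization; lower means less elongation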
* hit, by the source's call; . = no result given; & = joins results of further samples.

The opening four entries, ahead of the listing:
1. O=C1OCc2cccc3cccc1c23
2. CC(C)CNC(=O)CCN1C(=O)c2ccccc2S1(=O)=O
3. CC(NC1CCCC1)c1ccccc1 (configuration not stated)
4. O=C(OCN1C(=O)c2ccccc2C1=O)c1ccc(N2CCCC2=O)cc1
Assay by compound	1	2	3	4
MbtI inh	105.0	0.4	-5.7	-11.8
Mtb MenB inh	-6.8	1.0	-15.9	1.5
Polio RdRp inh	102.0	103.0	102.0	102.0
Polio RdRp inh intensity	102.0	104.0	102.0	101.0

Main list, from the first entry:
1. O=C1OCc2cccc3cccc1c23
2. CC(C)CNC(=O)CCN1C(=O)c2ccccc2S1(=O)=O
3. CC(NC1CCCC1)c1ccccc1 (configuration not stated)
4. O=C(OCN1C(=O)c2ccccc2C1=O)c1ccc(N2CCCC2=O)cc1
5. O=C(OCc1ccccc1)Sc1nnc(-c2ccccc2Cl)o1
6. COCCN1Cc2cccc(C(=O)Nc3c(C)cccc3C)c2C1=O
Assay by compound	1	2	3	4	5	6
MbtI inh	105.0	0.4	-5.7	-11.8	-2.9	5.8
Mtb MenB inh	-6.8	1.0	-15.9	1.5	-10.9	-14.1
Polio RdRp inh	102.0	103.0	102.0	102.0	105.0	101.0
Polio RdRp inh intensity	102.0	104.0	102.0	101.0	102.0	103.0

7. CCC(=O)OCC(=O)[C@@]1(OC(=O)CC)[C@@H](C)C[C@H]2[C@@H]3CCC4=CC(=O)C=C[C@]4(C)[C@@]3(Cl)[C@@H](O)C[C@@]21C
8. c1ccc(C2C3=C(Nc4ncnn42)c2ccccc2OC3c2cccs2)cc1 (configuration not stated)
9. O=C(c1noc2c1CCCC2)N(Cc1ccco1)C1CCCC1
10. O=C(O)C1CCCCC1C(=O)Nc1ccc(CN2CCCCC2)cc1 (configuration not stated)
11. COc1ccc(N2C(=O)C3CC=CCC3C2=O)cc1 (configuration not stated)
12. S=c1nc(-c2ccccc2)n(CCCn2ccnc2)c2c1CCCC2
Assay by compound	7	8	9	10	11	12
MbtI inh	-11.4	0.8	-2.4	-1.4	.	2.1
Mtb MenB inh	-14.5	-20.1	2.3	-21.6	-26.8	-16.7
Polio RdRp inh	104.0	102.0	102.0	104.0	104.0	104.0
Polio RdRp inh intensity	101.0	109.0	104.0	103.0	105.0	110.0

13. Cc1oc2ccc(O)c(CN3CCCCC3)c2c1C(=O)Nc1ccccc1
14. CCOC(=O)C1CCCN(C(=O)CSc2ccc3ccccc3c2)C1 (configuration not stated)
15. O=C(CNC(=S)N1CC2CC(C1)c1cccc(=O)n1C2)NC1CCCCC1 (configuration not stated)
16. FC(F)(F)c1ccc(N2CCOCC2)nc1
17. CC1=C(c2ccccc2)S(=O)(=O)N=C1N(C)Cc1ccccc1
18. c1ccc(CCCNc2nnnn2-c2ccccc2)cc1
Assay by compound	13	14	15	16	17	18
MbtI inh	14.1	-8.6	0.5	109.7	22.6	-9.8
Mtb MenB inh	-9.0	.	-5.0	1.2	-21.2	-13.8
Polio RdRp inh	103.0	103.0	101.0	105.0	103.0	101.0
Polio RdRp inh intensity	101.0	102.0	104.0	109.0	101.0	100.0

19. O=C1OC(COc2ccc(Br)cc2)CN1c1ccccc1 (configuration not stated)
20. COc1cc(C)cc2oc(=O)cc(C)c12
21. CC(C)C(c1nnnn1C1CCCC1)N1CCc2ccccc21 (configuration not stated)
22. Cc1oc(S(=O)(=O)N2CCOCC2)cc1C(=O)NCCNc1ncccc1C(F)(F)F
23. COc1ccc(-c2cc(C(=O)NC(C)(C)CO)on2)cc1OC
24. O=C1c2ccccc2C(O)(Cc2ccccc2)N1CCCO (configuration not stated)
Assay by compound	19	20	21	22	23	24
MbtI inh	-5.7	70.6	-4.1	-37.8	-3.3	.
Mtb MenB inh	9.2	-34.5	-6.5	16.1	-25.4	-2.6
Polio RdRp inh	106.0	101.0	101.0	100.0	102.0	97.0
Polio RdRp inh intensity	111.0	101.0	102.0	102.0	98.0	95.0

25. COc1ccc(CCN2C(=O)CC(Nc3ccccc3)C2=O)cc1OC (configuration not stated)
26. O=S(=O)(Nc1ccc(S(=O)(=O)C(F)F)cc1)C1=Cc2ccccc2CC1
27. COc1cccc(-n2c(N)c(C(N)=O)c3nc4ccccc4nc32)c1
28. CN(C)C(CNC(=O)c1ccc2c(c1)OCCO2)c1ccco1 (configuration not stated)
29. CCOC(=O)c1ccc(S(=O)(=O)NCC(c2ccccc2)N(C)C)cc1 (configuration not stated)
30. N#CC(C(=O)Cc1cccs1)c1ccccn1 (configuration not stated)
Assay by compound	25	26	27	28	29	30
MbtI inh	13.2	14.8	-53.8	-2.1	8.0	-27.2
Mtb MenB inh	-49.0	-2.0	-27.0	-7.1	-10.6	-11.1
Polio RdRp inh	102.0	101.0	.	108.0	101.0	106.0
Polio RdRp inh intensity	104.0	97.0	.	118.0	103.0	115.0

31. O=C(Cn1nc(-c2ccccc2)c2ccccc2c1=O)Nc1cccc(C(F)(F)F)c1
32. CSc1ccc(NC(=O)NCC2COc3ccccc3O2)cc1 (configuration not stated)
33. CCOc1ccccc1NC(=O)CC(C)S(=O)(=O)c1ccc2c(c1)NC(=O)CS2 (configuration not stated)
34. CCN1CCn2c3c(c4cc(Br)ccc42)CCCC31 (configuration not stated)
35. CCn1cc(C(=O)O)c(=O)c2cc(F)c(N3CCN(C(=S)NC(=O)c4c(-c5ccccc5)noc4C)CC3)cc21
36. Cc1ccc(S(=O)(=O)N(C)c2ccc(OCC(=O)N(C)Cc3ccc(C)o3)cc2)cc1
Assay by compound	31	32	33	34	35	36
MbtI inh	16.2	-6.1	22.1	-3.0	-42.1	13.1
Mtb MenB inh	-8.5	-9.3	9.4	0.6	-12.5	-5.0
Polio RdRp inh	100.0	102.0	105.0	101.0	102.0	102.0
Polio RdRp inh intensity	100.0	102.0	108.0	100.0	102.0	107.0

37. CN1CCN(CCCn2nnc3c(=O)oc4ccccc4c32)CC1
38. CCn1c(=O)cc(OCC(=O)NCc2cccs2)c2ccccc21
39. C=CCN1C(=O)C2(c3ccccc31)c1c(oc3ccccc3c1=O)C(=O)N2CCOC (configuration not stated)
40. CN1CCN(/C(=C\C#N)c2ccc(F)cc2)CC1
41. O=C(CSC1CCS(=O)(=O)C1)Nc1ccccc1-c1ccccc1 (configuration not stated)
42. C(=N\N1CCN(c2ccccn2)CC1)/C1=C(N2CCOCC2)C(=C/c2ccccc2)/CC1
Assay by compound	37	38	39	40	41	42
MbtI inh	7.9	7.5	-0.6	2.8	-4.1	3.2
Mtb MenB inh	-1.6	-7.5	-0.9	-20.4	18.8	-26.9
Polio RdRp inh	101.0	102.0	104.0	106.0	99.0	104.0
Polio RdRp inh intensity	101.0	103.0	102.0	102.0	102.0	94.0

43. O=C(CSc1ncn[nH]1)c1cccs1
44. COc1cc(/C=C/C(=O)O)ccc1OCC(=O)N1CCN(CC(=O)NC(C)(C)C)CC1
45. CC(OC(=O)c1ccc(S(=O)(=O)C(F)F)cc1)C(N)=O (configuration not stated)
46. c1ccc(-n2cnnc2SCc2cn3ccccc3n2)cc1
47. CCCCC/C=C\C/C=C\C/C=C\CCCCCCC(=O)NCCO
48. O=C(NCC(c1cccs1)N1CCOCC1)c1ccc(Cl)c(S(=O)(=O)N2CCOCC2)c1 (configuration not stated)
Assay by compound	43	44	45	46	47	48
MbtI inh	7.1	11.1	-5.5	-2.7	-21.9	-5.8
Mtb MenB inh	14.0	5.7	-10.1	-23.4	-3.6	-11.8
Polio RdRp inh	102.0	99.0	103.0	107.0	105.0&102.0	106.0
Polio RdRp inh intensity	106.0	102.0	108.0	115.0	102.0&102.0	105.0

49. Cc1ccc(-c2cc(C(F)F)n3ncc(C(=O)NCC4CCCO4)c3n2)cc1 (configuration not stated)
50. Cc1noc(C)c1CCC(=O)O
51. COC(=O)c1ccc(COC(=O)c2c3c(nc4ccccc24)CCCC3)o1
52. CC(=O)N(c1ccccc1)c1nc(CSc2nncn2-c2ccccc2)cs1
53. NC(=O)C1CCN(C(=O)OCC(F)(F)F)CC1
54. Cc1ccc(-c2cn3nc(N4CCCC(C(=O)O)C4)sc3n2)cc1 (configuration not stated)
Assay by compound	49	50	51	52	53	54
MbtI inh	-1.9	-11.0	12.2	-10.6	-4.0	-6.3
Mtb MenB inh	-3.6	7.7	-25.7	-10.4	-26.5	-4.8
Polio RdRp inh	103.0	101.0	98.0	102.0	103.0	102.0
Polio RdRp inh intensity	109.0	102.0	95.0	109.0	100.0	105.0

55. CCOC(=O)Cn1nc(C(F)(F)F)cc1C
56. Cc1ccc(-n2c(C)cc(/C=C3\SC(=O)N(C)C3=O)c2C)cc1
57. CC(=O)Nc1cccc2nc(C)sc12
58. CCOC(=O)c1c(C)oc2c1c(C=NCCc1c[nH]c3ccccc13)c(O)c1ccccc12
59. CC(C)Oc1cccc(C(=O)NCC2CCCO2)c1 (configuration not stated)
60. Cc1oc(-c2ccc(Cl)cc2)nc1CSCC(=O)N1CCc2ccccc21
Assay by compound	55	56	57	58	59	60
MbtI inh	.	-4.9	2.5	10.4	-1.5	6.2
Mtb MenB inh	-7.5	-26.1	.	-15.4	4.6	8.3
Polio RdRp inh	104.0	105.0	105.0	100.0	100.0	100.0
Polio RdRp inh intensity	113.0	101.0	101.0	100.0	102.0	103.0

61. CS(=O)(=O)c1ccc(NCC(=O)Nc2ccc(F)c(Cl)c2)cc1
62. COC(=O)CNC(=O)c1cc2c(C)nn(-c3ccc(Cl)cc3)c2s1
63. O=C(O)c1cccc(NC(=O)c2cn(-c3ccccc3)nc2-c2cc3ccccc3o2)c1
64. N#Cc1cnc(Sc2nnc(-c3ccc(Cl)cc3)n2Cc2ccccc2)nc1N
65. O=C(O)CC(C(=O)Nc1cc(C(F)(F)F)cc(C(F)(F)F)c1)C1=CCCCC1 (configuration not stated)
66. O=C(OCc1ccccc1)N1CN(Cc2ccccc2)Cc2c1oc1ccccc1c2=O
Assay by compound	61	62	63	64	65	66
MbtI inh	0.5	9.6	-12.8	-1.3	-8.2	181.3
Mtb MenB inh	0.6	4.7	-13.6	-18.6	-5.4	-17.6
Polio RdRp inh	97.0	96.0	104.0	104.0	99.0	102.0
Polio RdRp inh intensity	103.0	100.0	107.0	102.0	99.0	104.0

67. COc1ccc(N=Cc2cc(C=Nc3ccc(OC)cc3)c(S(=O)(=O)C(C)(C)C)s2)cc1
68. OCCOc1ccc(Br)cc1OCCO
69. COc1ccc(CCN2C(=O)c3ccccc3C(C(=O)O)C2c2ccccc2O)cc1OC (configuration not stated)
70. COc1ccc(-c2nnc(N(C)C(=O)C3CCOC3)s2)cc1 (configuration not stated)
71. CC(=O)O/N=C1/SC(=Nc2ccc(Cl)cc2)C2=C1N(C)CC2
72. COc1cc(-c2nnc(SCCSC)o2)cc(OC)c1OC
Assay by compound	67	68	69	70	71	72
MbtI inh	0.6	-6.5	-9.6	-258.6	8.2	-12.8
Mtb MenB inh	-11.7	.	-26.2	-0.8	12.6	-15.5
Polio RdRp inh	102.0	104.0	102.0	103.0	99.0	.
Polio RdRp inh intensity	103.0	107.0	99.0	102.0	88.0	.

73. O=C(Nc1nnc(-c2ccc3c(c2)CCCC3)o1)C1CC1
74. O=C1COc2ccc(C(=O)COC(=O)COc3ccc4c(c3)CCC4)cc2N1
75. N#CCCn1cc(C(=O)Cn2cc(C(F)(F)F)ccc2=O)c2ccccc21
76. COC(=O)C1CCN(C(=O)Nc2ccccc2)CC1
77. CN(CC(=O)O)S(=O)(=O)c1ccc(Br)cc1
78. CN(Cc1cccs1)C(=O)c1cccc(C#N)c1
Assay by compound	73	74	75	76	77	78
MbtI inh	1.4	1.2	-2.4	-3.6	.	-0.9
Mtb MenB inh	8.9	-31.4	1.2	4.1	-12.3	1.8
Polio RdRp inh	101.0	95.0	101.0	101.0	98.0	106.0
Polio RdRp inh intensity	104.0	96.0	105.0	101.0	102.0	118.0

79. CCOc1ccc(CCNC(=O)c2cc(C)[nH]n2)cc1OCC
80. CSCCC(C(=O)NC1=NCCS1)N1C(=O)c2ccccc2C1=O (configuration not stated)
81. O=C(COC(=O)C1CC(=O)N(Cc2ccco2)C1)Nc1cccc2nsnc12 (configuration not stated)
82. O=C(N/N=C/c1ccc(F)cc1)c1ccc(CN2CCOCC2)cc1
83. COc1ccc(CN2CN(C(C)C)CSC2=S)cc1
84. Cc1nc2ccccc2c(=O)n1-c1cccc(NC(=O)C2CC2)c1
Assay by compound	79	80	81	82	83	84
MbtI inh	-21.5	-5.9	11.4	14.2	13.3	15.8
Mtb MenB inh	-0.5	-37.7	8.6	-14.6	-74.3	-6.4
Polio RdRp inh	101.0	105.0	107.0	100.0	103.0	101.0
Polio RdRp inh intensity	103.0	102.0	100.0	97.0	101.0	99.0

85. CCCCC1NC(=S)N(C2CCCCC2)C1=O (configuration not stated)
86. CCN(c1ccccc1)S(=O)(=O)c1cc(C(=O)N2CCCN(C)CC2)ccc1C
87. O=C(CSc1ccc2c(c1)CCC2)N1CCNC1=O
88. CC(C)CCNC(=O)C1CC(=O)N(c2ccccc2)C1 (configuration not stated)
Assay by compound	85	86	87	88
MbtI inh	7.2	1.9	2.0	-16.7
Mtb MenB inh	-16.6	5.7	-32.4	-48.4
Polio RdRp inh	103.0	100.0	102.0	101.0
Polio RdRp inh intensity	103.0	99.0	102.0	101.0

Screening results as filed in PubChem.
